GIV Gai3 FP: GIV-Galpha-i interaction inhibition. 210,000 compounds, 0.42% hits. percent of control (FP), % (concentration not given with the values). AID 1224905. Galpha-i3/FITC-GIV peptide fluorescence polarization, 90 min; active compounds read low; scaled: aluminum fluoride 0%, vehicle 100%;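 active = replicate mean at 85% of control or lower, very high polarization wells dropped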;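 also: wells of about 15 µL received 100 nL stock; the first replicate is given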
Target sequence (P08753 whole entry, looked up): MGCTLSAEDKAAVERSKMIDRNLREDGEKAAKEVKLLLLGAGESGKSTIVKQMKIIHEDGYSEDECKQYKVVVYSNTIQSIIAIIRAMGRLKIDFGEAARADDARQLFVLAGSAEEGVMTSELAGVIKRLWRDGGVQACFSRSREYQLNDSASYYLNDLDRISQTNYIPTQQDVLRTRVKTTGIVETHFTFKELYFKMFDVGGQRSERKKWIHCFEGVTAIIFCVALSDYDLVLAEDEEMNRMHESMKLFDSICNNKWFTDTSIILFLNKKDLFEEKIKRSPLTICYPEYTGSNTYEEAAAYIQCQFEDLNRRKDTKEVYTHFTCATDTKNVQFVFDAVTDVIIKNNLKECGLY
Sa growth 42C: inhibitors of Staphylococcus aureus growth at 42 °C; S. aureus RN4220 growth, OD600, 20 h; active compounds read low; relative growth, % (no concentration beside the values); 170,000 compounds, 0.53% hits; AID 720641;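 active = growth at 42 °C up to 50% and 20 or more points under that at 30 °C, or under 10% at both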;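 also: 300 nL library stock went into each well; scaled to the means of positive and negative controls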
HCMV UL50-53 inh: inhibitors of HCMV UL50-UL53 nuclear egress complex interaction; HTRF UL50-UL53 interaction, normalized percent inhibition; inhibition, % (test concentration not listed); 190,000 compounds, 0.15% hits;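 active = both replicates at 50% or more, plus weaker picks with an unusually low signal ratio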;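 also: stock transfer was 100 nL into about 20 µL; 0% = negative control wells and 100% = wells with untagged competitor protein; inactives centre near -12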
Sa growth 42C second temp: second read-out of Sa growth 42C, no call of its own (marks repeat the call); relative growth, %; measured here: growth at 30 °C;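 optical density after 20 h as mean of two plates; 100% = untreated growth and lower means inhibition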
* hit, by the source's call; . = not tested or not shown; & = joins results of further samples.

SMILES | Sa growth 42C second temp | GIV Gai3 FP | Sa growth 42C | HCMV UL50-53 inh
Cc1ccccc1CC1C(=O)Nc2ccc(Br)cc21 (stereo unspecified) | 84 | 98 | 101 | 15
COC(=O)c1ccc(S(=O)(=O)Nc2ccc(N3CCOCC3)cc2)n1C | 88 | 99 | 88 | -18
CCc1ccc(NC(=O)N2CCOc3ccccc32)cc1 | 94 | 107 | 122 | 1
Cc1cc(=O)[nH]c(SCc2cccc3cccnc23)n1 | 88 | . | 75 | -20
COc1cc2nc(SCC(=O)N(C)C3CCCCC3)n3nc(C)nc3c2cc1OC | 83 | 95 | 112 | .
CC(C)c1nnc(NC(=O)C(C(C)C)N2C(=O)c3ccccc3C2=O)s1 (stereo unspecified) | 87 | 95 | 92 | -34
Cc1ccc(NC(=O)CC2S/C(=N/N=C/c3cccs3)NC2=O)cc1 (stereo unspecified) | 88 | 102 | 120 | 4
CC1CCc2cc(F)ccc2N1C(=O)Cn1c2ccccc2c(=O)c2ccccc21 (stereo unspecified) | . | 102 | . | -22
CC(C)(C)N(Cc1ccccc1)C(=O)C1COc2ccccc2O1 (stereo unspecified) | 93 | 98 | 98 | -22
CCOc1ccc(-n2c(=O)c3c(C)c(C)sc3n(CC(=O)Nc3ccc(CC)cc3)c2=O)cc1 | 95 | 99 | 91 | 3
Cc1cccc(C(=O)Nc2cccc(OCc3cc(=O)n4c(C)csc4n3)c2)c1 | 86 | 98 | 113 | -14
NC(=O)Oc1cccc2ccccc12 | 89 | . | 125 | -35
Fc1ccc(N2CCn3c(SC/C=C/c4ccccc4)nnc32)cc1 | . | 102 | . | -21
COc1ccc(/C=C2/C(=O)Nc3ccccc32)cc1 | 53 | 101 | 61 | -52
Nc1c(C(=O)NCc2ccccc2)nnn1Cc1cccc(Br)c1 | 98 | 102 | 111 | -30
O=C(NC(=O)c1ccc(F)c(Cl)c1)Nc1nnc(C(F)(F)F)s1 | 26 | 110 | 72 | 31
CN1C=CC(=C2C(=O)c3ccccc3C2=O)C=C1 | 82 | . | 103 | -59
CCc1cccc(C)c1NC(=O)CSCc1cnn(-c2ccccc2)c1-n1cccc1 | 81 | 100 | 86 | 8
COC(=O)c1c(C)[nH]c(C(=O)OCC(=O)Nc2ccccc2)c1C | 90 | . | 99 | -10
O=C(NCC1COc2ccccc2O1)c1ccc(NC(=O)C2CCCO2)cc1 (stereo unspecified) | 80 | 102 | 99 | .

SMILES | Sa growth 42C second temp | GIV Gai3 FP | Sa growth 42C | HCMV UL50-53 inh
COc1cccc(-c2noc(C3CCCN(C(=O)Cc4ccccc4)C3)n2)c1 (stereo unspecified) | 80 | 102 | 110 | -10
Cn1cc(S(=O)(=O)N2CCCC2)cc1C(=O)N1CCC(Cc2ccccc2)CC1 | 84 | 94&108 | 87 | 1
CCCNC(=O)C1CCN(Cc2cc3ccccc3n2Cc2ccccc2)CC1 | 88 | 95 | 101 | .
COc1ccccc1Cc1nc2ccccc2nc1SCC(=O)Nc1ccccc1C(F)(F)F | 94 | 100 | 95 | .
COc1ccc(C2(C(=O)NCC3CCCO3)CCOCC2)cc1 (stereo unspecified) | 100 | 103 | 103 | -1
c1csc(-c2noc(CCCN3CCNCC3)n2)c1 | 97 | . | 91 | -4
Cc1ccc(C(C)C)c(OCCCCn2ccnc2)c1 | -0.4* | 97 | -0.7* | -16
Cc1cccc(NS(=O)(=O)c2cccc(C(=O)OC(C)C(N)=O)c2)c1 (stereo unspecified) | 88 | . | 74 | -7
O=C(O)CSCC(=O)Nc1nnc(C2CC2)s1 | 88 | 102 | 100 | -8
C=C(C)CN1CCN(c2cc(C)nc3c(-c4ccc(F)cc4)c(C)nn23)CC1 | . | 109 | . | 1
CN(C)c1cccc(C(=O)NC(=NCc2ccncc2)Nc2ccc(F)cc2)c1 | . | 102 | . | -28
CCOC(=O)c1cnc2c(c(C)nn2C)c1NCc1ccco1 | 72 | 109 | 97 | -8
N#CCc1cccc(N)c1 | 91 | . | 86 | -2
O=C(c1cnc(-c2ccccc2)nc1-c1ccccc1)N1CCOCC1 | . | 107 | . | 12
Cc1cc(-c2ccc(C)c(S(=O)(=O)NCC3CCN(Cc4ccc(F)cc4)CC3)c2)on1 | 82 | 100 | 105 | .
CC(C)c1nc(-c2c(N)n(C)c(=O)n(C)c2=O)sc1C(=O)C(C)(C)C | 92 | . | 94 | -16
CN(C)/C=C/C(=O)c1cc(-c2ccccc2)no1 | 91 | 103 | 93 | -71
COc1ccc(OC)c(NCc2cccn2-c2nnc(N3CCC(C)CC3)s2)c1 | 83 | 100 | 88 | .
CC1CCC(NC(=O)c2ccc(CS(=O)(=O)c3cccc(C(F)(F)F)c3)o2)CC1 (stereo unspecified) | 81 | 108 | 96 | -4
COC(=O)c1ccc(Oc2nc3c(c(=O)n(C)c(=O)n3C)n2C(C)C)cc1 | 88 | 106 | 84 | -36

SMILES | Sa growth 42C second temp | GIV Gai3 FP | Sa growth 42C | HCMV UL50-53 inh
CCCC1CCC(c2ccc(OC(=O)c3ccco3)cc2)CC1 (stereo unspecified) | 93 | 96 | 98 | .
Cn1nc(C(=O)OCc2cc(Cl)c3c(c2)OCO3)c2ccccc2c1=O | 94 | . | 96 | 5
COc1ccc(NC(=O)C2CCN(C(=O)N3CCOc4ccccc43)CC2)cc1 | 83 | 101 | 105 | -21
Cc1nn(C)c(C)c1CNC(=O)NCC1CCCO1 (stereo unspecified) | . | 105 | . | 6
COc1ccc(N=Cc2c(O)[nH]c3ccccc23)cc1 | 102 | 100 | 101 | -30
COc1cccc(C(=O)COC(=O)c2cncc(Br)c2)c1 | 88 | 106 | 104 | -13
O=S(=O)(c1ccc(F)cc1)N1CCCCC1 | 98 | 104 | 113 | -18
Cc1ccc(-n2nc(CO)c(C(=O)NCc3ccccn3)n2)cc1C | 97 | 101 | 99 | 17
CSc1nc2ccc(NC(=O)CCc3ccco3)cc2s1 | 94 | . | 83 | -27
COCCNC(=O)Cc1nc2ccccc2n1CC(=O)NCc1ccc(Cl)cc1 | 106 | . | 110 | 9
COc1cccc(C(=O)N2N=C(c3ccc(Br)cc3)CC2(O)C(F)(F)F)c1 (stereo unspecified) | . | 102 | . | -24
CC(C)CC(=O)NCCc1csc(-c2cccc(F)c2)n1 | . | 105 | . | -36
Nc1ncnc2c1ncn2CCNCCc1ccccc1 | 89 | 99 | 86 | -1
CC(Sc1nnc(-c2ccccc2)o1)C(=O)N(C)c1ccccc1 (stereo unspecified) | 89 | . | 91 | -9
COc1ccccc1NC(=O)Cn1nc(C(F)(F)F)n(N)c1=S | 92 | . | 94 | -2
Cc1ccc(OCC(=O)Nc2ccc3nc(SCC(=O)N4CCc5ccccc54)sc3c2)cc1 | 93 | 100 | 103 | -12
COc1ccc(C(=O)COC(=O)/C=C/c2cccc(C(F)(F)F)c2)cc1 | 91 | . | 127 | -3
COc1cc(/C=C2/SC(N)=NC2=O)ccc1OC(=O)c1ccccc1Cl | . | 107 | . | -2
CCN(CC)S(=O)(=O)c1ccc2oc(C(=O)Nc3cc(C)ccc3OC)c(C)c2c1 | 80 | 105 | 112 | .
COc1ccc(-n2ncc(C(=O)NCCCN3CCCCC3)c2C2CCN(C(=O)OC(C)(C)C)CC2)cc1 | 91 | 111 | 93 | .

SMILES | Sa growth 42C second temp | GIV Gai3 FP | Sa growth 42C | HCMV UL50-53 inh
N#Cc1c(SCC(N)=O)nsc1SCC(N)=O | 95 | 106 | 109 | -26
CCC(=O)NCc1nc2ccccc2n1Cc1ccccc1 | 86 | 104&100 | 113 | -19&-20
CN(C(=O)Cn1nnc2ccccc2c1=O)C1CCCc2ccccc21 (stereo unspecified) | 98 | . | 72 | -39
CCC(C)c1c(O)nc2n(c1=O)CCCS2 (stereo unspecified) | 82 | 99 | 90 | -8
CCN(CC)c1nn2c(=O)c(C(=O)NCCc3ccc(C)cc3)cnc2s1 | 85 | 106 | 105 | .
O=C(Nc1ccccc1)N1CCCC1c1cccs1 (stereo unspecified) | 90 | 103 | 93 | 2
O=C(CSC1=NCCS1)N1CCCCCC1 | 98 | . | 95 | -6
Cc1cc(NCc2ccccc2)nc(-c2ccccc2O)n1 | 43 | 103 | 71 | 0
Cc1ccc(C(=O)NCc2cc(=O)n3nc(-c4ccccc4)sc3n2)cc1 | . | 103 | . | -17
CCOc1ccc(-c2cc(C(=O)N3CCc4ccccc4C3)c3ccccc3n2)cc1 | 93 | 99 | 97 | .
CCN=C1S/C(=C2\C(=O)N(C(C)=O)c3ccccc32)C(=O)N1CC | 104 | 106 | 108 | 3
O=C(CSc1n[nH]c(=O)[nH]c1=O)Nc1ccccc1C(=O)c1ccccc1 | 93 | . | 107 | -38
NC(=O)Nc1ccc(C(=O)OCC(=O)N(Cc2ccccc2)C2CCS(=O)(=O)C2)cc1 (stereo unspecified) | 99 | . | 89 | 12
CCCOc1ccc(C(=O)N(Cc2cccs2)C2CCS(=O)(=O)C2)cc1 (stereo unspecified) | 90 | 99 | 102 | .
CCC1Oc2ccc(C)cc2N(CC(=O)NC2CCCCCCC2)C1=O (stereo unspecified) | 85 | 98 | 83 | -28
Cc1ccc(-c2cc(C(=O)N(C)C3CCCCC3)[nH]n2)cc1C | 102 | 102 | 109 | -14
O=S(=O)(NCCc1ccc(Cl)cc1)c1ccc(F)c(F)c1 | 89 | . | 88 | -24
O=C(O)C(C(=O)O)=C1C2CC3CC(C2)CC1C3 | 93 | 98 | 114 | -3

Given with two lines to a compound: 4 of the compounds above.
Each structure is followed by: Sa growth 42C second temp, GIV Gai3 FP, Sa growth 42C, HCMV UL50-53 inh
CCN(CC)c1nn2c(=O)c(C(=O)NCCc3ccc(C)cc3)cnc2s1
 : 85, 106, 105, .
O=C(Nc1ccccc1)N1CCCC1c1cccs1 (stereo unspecified)
 : 90, 103, 93, 2
O=C(CSC1=NCCS1)N1CCCCCC1
 : 98, ., 95, -6
Cc1cc(NCc2ccccc2)nc(-c2ccccc2O)n1
 : 43, 103, 71, 0

Grouped by structure, the compounds so far with four or more nitrogen atoms.
SMILES | Sa growth 42C second temp | GIV Gai3 FP | Sa growth 42C | HCMV UL50-53 inh
COc1cc2nc(SCC(=O)N(C)C3CCCCC3)n3nc(C)nc3c2cc1OC | 83 | 95 | 112 | .
CC(C)c1nnc(NC(=O)C(C(C)C)N2C(=O)c3ccccc3C2=O)s1 (stereo unspecified) | 87 | 95 | 92 | -34
Cc1ccc(NC(=O)CC2S/C(=N/N=C/c3cccs3)NC2=O)cc1 (stereo unspecified) | 88 | 102 | 120 | 4
Fc1ccc(N2CCn3c(SC/C=C/c4ccccc4)nnc32)cc1 | . | 102 | . | -21
Nc1c(C(=O)NCc2ccccc2)nnn1Cc1cccc(Br)c1 | 98 | 102 | 111 | -30
O=C(NC(=O)c1ccc(F)c(Cl)c1)Nc1nnc(C(F)(F)F)s1 | 26 | 110 | 72 | 31
CCc1cccc(C)c1NC(=O)CSCc1cnn(-c2ccccc2)c1-n1cccc1 | 81 | 100 | 86 | 8
c1csc(-c2noc(CCCN3CCNCC3)n2)c1 | 97 | . | 91 | -4
C=C(C)CN1CCN(c2cc(C)nc3c(-c4ccc(F)cc4)c(C)nn23)CC1 | . | 109 | . | 1
CN(C)c1cccc(C(=O)NC(=NCc2ccncc2)Nc2ccc(F)cc2)c1 | . | 102 | . | -28
CCOC(=O)c1cnc2c(c(C)nn2C)c1NCc1ccco1 | 72 | 109 | 97 | -8
CC(C)c1nc(-c2c(N)n(C)c(=O)n(C)c2=O)sc1C(=O)C(C)(C)C | 92 | . | 94 | -16
COc1ccc(OC)c(NCc2cccn2-c2nnc(N3CCC(C)CC3)s2)c1 | 83 | 100 | 88 | .
COC(=O)c1ccc(Oc2nc3c(c(=O)n(C)c(=O)n3C)n2C(C)C)cc1 | 88 | 106 | 84 | -36
Cc1nn(C)c(C)c1CNC(=O)NCC1CCCO1 (stereo unspecified) | . | 105 | . | 6
Cc1ccc(-n2nc(CO)c(C(=O)NCc3ccccn3)n2)cc1C | 97 | 101 | 99 | 17
COCCNC(=O)Cc1nc2ccccc2n1CC(=O)NCc1ccc(Cl)cc1 | 106 | . | 110 | 9
Nc1ncnc2c1ncn2CCNCCc1ccccc1 | 89 | 99 | 86 | -1
COc1ccccc1NC(=O)Cn1nc(C(F)(F)F)n(N)c1=S | 92 | . | 94 | -2
COc1ccc(-n2ncc(C(=O)NCCCN3CCCCC3)c2C2CCN(C(=O)OC(C)(C)C)CC2)cc1 | 91 | 111 | 93 | .
N#Cc1c(SCC(N)=O)nsc1SCC(N)=O | 95 | 106 | 109 | -26
CN(C(=O)Cn1nnc2ccccc2c1=O)C1CCCc2ccccc21 (stereo unspecified) | 98 | . | 72 | -39
CCN(CC)c1nn2c(=O)c(C(=O)NCCc3ccc(C)cc3)cnc2s1 | 85 | 106 | 105 | .
Cc1ccc(C(=O)NCc2cc(=O)n3nc(-c4ccccc4)sc3n2)cc1 | . | 103 | . | -17
O=C(CSc1n[nH]c(=O)[nH]c1=O)Nc1ccccc1C(=O)c1ccccc1 | 93 | . | 107 | -38

Screening data from PubChem BioAssay.
